# Assay outcomes as filed in PubChem BioAssay.
# GIRK2 activ = opens human GIRK2 potassium channels; P48051; HEK293-GIRK2 thallium flux, Thallos fluorescence; calls only for hits at 25 µM; 63,000 tested, 0.05% active;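 active = among the strongest 0.2% of first-round signals and kept after retests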;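 note: first round at about 10 µM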
# Calls only; i = inactive. Not all compounds are listed; the hit share may differ from the screen's.
SMILES,GIRK2 activ
Cc1cc(C)cc(NC(=O)Nc2nccn(-c3ccc(Br)cc3)c2=O)c1,i
CC(=O)c1sc(NC(=O)c2c[nH]c3ccccc3c2=O)nc1C,i
c1ccc(C(OC2CCN(CCCc3nn[nH]n3)CC2)c2ccccc2)cc1,i
Cc1cc(C)n(-c2ccnc(N3CCN(CC(=O)NC(C)C)CC3)n2)n1,i
COc1ccc(OC)c(NC(=O)Cn2cccc(-c3nc(-c4ccc(Cl)cc4)no3)c2=O)c1,i
CC1CCc2cc(F)ccc2N1C(=O)C12CCC(C1)C(C)(C)C2=O (stereo not given),i
Cc1cccc(Nc2cc(Cl)nc(SCC(=O)O)n2)c1C,i
CCC(=O)O[C@]1(C(=O)SCF)[C@H](C)C[C@H]2[C@@H]3C[C@H](F)C4=CC(=O)C=C[C@]4(C)[C@@]3(F)[C@@H](O)C[C@@]21C,i
CCc1c2c(nc3ccc(OC(=O)N4CCC(N5CCCCC5)CC4)cc13)-c1cc3c(c(=O)n1C2)COC(=O)[C@]3(O)CC,i
O=C(Nc1ccccc1)N1CC(c2nc3ccccc3[nH]2)C1,i
CCCCCCCCCCCC(=O)O,i
O=C(CCCS(=O)(=O)c1ccccc1)Nc1nnc(-c2ccsc2)o1,i
CCSc1nnnn1-c1ccc(NC(=O)c2ccc3nnsc3c2)cc1,i
O=C(CSCc1ccccc1)NCC1CCN(C(=O)Oc2ccccc2)CC1,i
Cc1ccccc1C#Cc1ccc(CCC(=O)O)cc1,i
CCCCCCCC/C=C\CCCCCCCC(=O)O,i
O=C(O)CCC/C=C\C[C@@H]1[C@@H](/C=C/[C@H](O)CCc2ccccc2)[C@H](O)C[C@@H]1O,i
COc1ccc(C2=N[C@@H](c3ccc(Cl)cc3)[C@@H](c3ccc(Cl)cc3)N2C(=O)N2CCNC(=O)C2)c(OC(C)C)c1,i
O=c1c(=O)n(-c2ccccc2)ccn1Cc1nc(-c2ccccc2)no1,i
CCOc1ccc2nc(NC(=O)CCc3csc(NC(=O)c4ccco4)n3)sc2c1,i
COc1ccc(CN2CCN(C(c3ccc(F)cc3)c3ccc(F)cc3)CC2)c(OC)c1OC,i
CCN(CC)c1nc2ccsc2c(=O)n1CCC(=O)NCCc1c[nH]c2ccccc12,i
Cc1cccc(C)c1NC(=O)C1CCCCN1C (stereo not given),i
Cc1ccc2c(Nc3ccc(F)c(F)c3)c(C(=O)N3CCCC3)cnc2n1,i
CCOc1ccc(-c2cc3c(SCC)nccn3n2)cc1,i
CCCCC1C(=O)N(c2ccccc2)N(c2ccccc2)C1=O,i
Cc1nnc(NC(=O)CN(C)c2nc3c(Cl)cccc3s2)s1,i
CCCCCCCCCCCCCCCC(=O)O,i
COc1ccccc1OCCNCC(O)COc1cccc2[nH]c3ccccc3c12 (stereo not given),i

# Reprinted at random: 7 records from the list
SMILES,GIRK2 activ
CCCCCCCCCCCC(=O)O,i
COc1ccccc1OCCNCC(O)COc1cccc2[nH]c3ccccc3c12 (stereo not given),i
CCCCCCCCCCCCCCCC(=O)O,i
Cc1cccc(C)c1NC(=O)C1CCCCN1C (stereo not given),i
O=C(CSCc1ccccc1)NCC1CCN(C(=O)Oc2ccccc2)CC1,i
CCN(CC)c1nc2ccsc2c(=O)n1CCC(=O)NCCc1c[nH]c2ccccc12,i
Cc1ccc2c(Nc3ccc(F)c(F)c3)c(C(=O)N3CCCC3)cnc2n1,i

# Exported as labelled records: entries from further up
O=C(CSCc1ccccc1)NCC1CCN(C(=O)Oc2ccccc2)CC1
  GIRK2 activ: i

Cc1ccccc1C#Cc1ccc(CCC(=O)O)cc1
  GIRK2 activ: i

# Gathered by group: the entries above containing two or more sulfur atoms
SMILES,GIRK2 activ
O=C(CCCS(=O)(=O)c1ccccc1)Nc1nnc(-c2ccsc2)o1,i
CCSc1nnnn1-c1ccc(NC(=O)c2ccc3nnsc3c2)cc1,i
CCOc1ccc2nc(NC(=O)CCc3csc(NC(=O)c4ccco4)n3)sc2c1,i
Cc1nnc(NC(=O)CN(C)c2nc3c(Cl)cccc3s2)s1,i
